# Source: PubChem (Broad Institute)
# A1 inh = blocks A1 activity; MEF A1-2A-BIM cells, caspase-Glo luminescence, 3 h; percent of clofoctol signal, DMSO as zero; caspase activation, % (test concentration not listed); 21,000 compounds, 0.51% hits;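 active means most replicate scores above 10, or exactly half above 10 with mean activity above 10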;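 further: effector caspase 3 and 7 activity cleaving a DEVD luciferin substrate; 50 nL library stock added to about 30 µL; numbers are from one replicate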
# BJeLR viab HTS = lowers viability of BJeLR cells; 30,000 compounds, 0.64% hits; viability loss activity score, % (test concentration not listed); AID 2275; BJeLR fibroblasts viability, CellTiterGlo ATP luminescence, 48 h; HRASV12, hTERT and SV40 LT/ST transformed; in the data active means viability loss activity score above about 50%; about a fifth of its hits are not listed in these tables;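 further: higher score means fewer live cells and less ATP luminescence; stock transfer was 50 or 100 nL into about 30 µL; 0% = vehicle wells and 100% = a reference killing control; one replicate is shown; the record names a cut of 85%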
# * hit, by the source's call; / = no result given. A portion of the library; count on the stated rates, not on these rows.
# Sequence of screens: BJeLR viab HTS, A1 inh
Cc1c(C)c2c(c(C)c1O)CCC(C)(COc1ccc(CC3SC(=O)NC3=O)cc1)O2 (stereo not given)
 : -3.1, -0.1
COc1ccc(NC(=O)Nc2ccc3c(c2)C(=O)N([C@@H](C)CO)C[C@@H](C)[C@@H](CN(C)Cc2ccc(Oc4ccccc4)cc2)O3)cc1
 : 3.8, 1.5
COc1ccc(NC(=O)N(C)C[C@@H]2Oc3ccc(NC(=O)C4CC4)cc3C(=O)N([C@H](C)CO)C[C@@H]2C)cc1
 : 2.4, 0.7
O=C(Nn1cnc2ccccc2c1=O)C1CCCCC1
 : 3.6, -0.2
Cc1ccc(S(=O)(=O)N(C)C[C@@H]2Oc3ccc(NS(=O)(=O)c4c(C)noc4C)cc3C(=O)N([C@H](C)CO)C[C@@H]2C)cc1
 : -1.7, 0.0
O=C(Oc1ccccc1)c1cc2cc(Br)ccc2oc1=O
 : -4.6, -1.2
Cc1ccc(S(=O)(=O)Nc2ccc3c(c2)C(=O)N([C@H](C)CO)C[C@H](C)[C@@H](CN(C)C(=O)Nc2cccc4ccccc24)O3)cc1
 : -1.7, -0.2
O=C(NCCc1ccccc1)C1CC(=O)N(c2ccc(F)c(Cl)c2)C1 (stereo not given)
 : 18.7, 0.2
CC(C)NC(=O)N(C)C[C@H]1Oc2c(NC(=O)C3CCCCC3)cccc2C(=O)N([C@@H](C)CO)C[C@@H]1C
 : -1.4, /
CC(=O)Nc1ccc(S(=O)(=O)NC2CCCC2)cc1
 : 3.2, 0.4
COCC(C)NC(=O)Cn1nc(C)c(NC(=O)c2cc(-c3ccccc3F)no2)c1C (stereo not given)
 : -2.5, 1.9
O=c1oc2ccccc2cc1-c1cn2cc(Cc3ccccc3Cl)sc2n1
 : 11.0, 0.2
COc1ccc2cc3cc(C(=O)NCC4COc5ccccc5O4)sc3nc2c1 (stereo not given)
 : 1.2, /
COc1ccc(S(=O)(=O)N(C)C[C@H]2Oc3c(NC(=O)Nc4ccc(F)cc4)cccc3C(=O)N([C@@H](C)CO)C[C@H]2C)cc1
 : -8.5, /
C=Cn1c2ccccc2c2nc3ccccc3nc21
 : 1.9, -2.4
Cc1ccnc(N=Cc2c(C)[nH]n(-c3ccccc3)c2=O)c1
 : 6.4, -0.2
COc1ccc(/C=C2\CCc3ccccc3C2=O)cc1Cn1cccn1
 : -0.9, /
N#Cc1c(-c2ccco2)cc(-c2ccccc2)nc1SCCN1C(=O)c2ccccc2C1=O
 : 2.8, 0.9
COc1ccc2cc(C(C)C(=O)Nc3ccc(OC(F)(F)F)cc3)ccc2c1 (stereo not given)
 : -7.2, -0.2
C[C@@H]1CN([C@H](C)CO)C(=O)c2cccc(NC(=O)C3CCCCC3)c2O[C@@H]1CN(C)CC1CC1
 : -4.8, /

# Whole records as entered above. Order of values: BJeLR viab HTS, A1 inh
# Cc1c(C)c2c(c(C)c1O)CCC(C)(COc1ccc(CC3SC(=O)NC3=O)cc1)O2 (stereo not given) as listed: -3.1, -0.1
# N#Cc1c(-c2ccco2)cc(-c2ccccc2)nc1SCCN1C(=O)c2ccccc2C1=O as listed: 2.8, 0.9
# O=C(Nn1cnc2ccccc2c1=O)C1CCCCC1 as listed: 3.6, -0.2

# New compounds follow.
# Sequence of screens: BJeLR viab HTS, A1 inh
COc1cc2c(c(OC)c1)C(=O)OC(C)C2 (stereo not given)
 : 5.9, 0.4
CNC(=O)c1ccc(/C=C2/Sc3ccccc3NC2=O)cc1
 : 1.0, /
Cc1cccc(-c2nc(CS(=O)CC(=O)NCc3cccs3)c(C)o2)c1 (stereo not given)
 : -3.6, /
O=C(CC1SC(=NC2CC3C=CC2C3)NC1=O)Nc1ccccc1Cl (stereo not given)
 : -0.8, 0.1
c1csc(CSc2nc3ccccc3[nH]2)c1
 : 5.4, /
Cc1sc(-c2ccc(-c3csnn3)cc2)nc1-c1ccccc1
 : 4.5, -0.8
O=C(Nc1ccc2nc3n(c(=O)c2c1)CCCC3)c1ccccn1
 : -3.3, -4.0
Cc1noc(C)c1NC(=O)N(C)C[C@@H]1Oc2ccc(NC(=O)Nc3ccc4c(c3)OCO4)cc2C(=O)N([C@@H](C)CO)C[C@H]1C
 : -4.8, 0.7
O=C(c1ccccc1)N(Cc1ccccc1)c1ccccn1
 : -2.3, -0.2
Cc1ccc(S(=O)(=O)Nc2ccc3c(c2)C(=O)N([C@@H](C)CO)C[C@H](C)[C@H](CN(C)S(=O)(=O)c2cccs2)O3)cc1
 : 14.5, -0.6
C[C@@H]1CN([C@@H](C)CO)C(=O)c2cccc(NC(=O)c3cnccn3)c2O[C@H]1CN(C)C(=O)Nc1ccccc1
 : -11.3, /
COc1ccc(/C=C/C(=O)C2CC2)cc1COc1cccc(C)c1C
 : 4.3, 0.6
COc1ccc(S(=O)(=O)Nc2cccc3c2O[C@H](CN(C)C(=O)Nc2ccc(C(F)(F)F)cc2)[C@@H](C)CN([C@H](C)CO)C3=O)cc1
 : -1.1, /
Cc1ccc(/C=N/N2C(=O)C3C(C2=O)C2C=CC3C23CC3)o1 (stereo not given)
 : -1.0, 0.0
CCOc1ccc(N(C(C)C(=O)NCc2ccc(C)cc2)S(C)(=O)=O)cc1 (stereo not given)
 : 2.9, /
C[C@@H]1CN([C@@H](C)CO)C(=O)c2cc(NS(=O)(=O)c3cn(C)cn3)ccc2O[C@@H]1CN(C)C(=O)NC1CCCCC1
 : 4.9, -0.7
Cc1cccc(C)c1NC(=O)NN1C(C)CCCC1C (stereo not given)
 : 7.6, 0.3
COc1ccc(OCC(O)CNC(=O)c2cccnc2Oc2ccc(Cl)cc2)cc1 (stereo not given)
 : -2.6, /
CCOC(=O)c1oc2ccccc2c1NC(=O)CCN1CCCCC1
 : 15.3, 0.8
COc1ccc(NC(=O)N(C)C[C@@H]2Oc3c(NC(=O)c4ccncc4)cccc3C(=O)N([C@H](C)CO)C[C@@H]2C)cc1
 : 4.7, /

# Another view of part of the listing above.
molecule | BJeLR viab HTS | A1 inh
Cc1noc(C)c1NC(=O)N(C)C[C@@H]1Oc2ccc(NC(=O)Nc3ccc4c(c3)OCO4)cc2C(=O)N([C@@H](C)CO)C[C@H]1C | -4.8 | 0.7
O=C(c1ccccc1)N(Cc1ccccc1)c1ccccn1 | -2.3 | -0.2

# The listing continues:
# Sequence of screens: BJeLR viab HTS, A1 inh
C=C1C(=O)O[C@@H]2/C=C(\C)[C@H](OC(C)=O)C/C=C(/C)C[C@@H](OC(=O)/C(=C/CO)CO)C12 (stereo not given in full)
 : -10.9, 0.3
COc1ccc(S(=O)(=O)N(C)C[C@@H]2Oc3c(NC(=O)C4CCCCC4)cccc3C(=O)N([C@@H](C)CO)C[C@H]2C)cc1
 : 3.2, /
Cc1[nH]c2ccccc2c1C(c1c(C)[nH]c2ccccc12)C(C)C
 : -1.7, -0.2
CC1CCCCC1NC(=O)c1cccn2c(=O)c3c4c(sc3nc12)CCCC4 (stereo not given)
 : 0.7, /
C[C@H](CO)N1C[C@H](C)[C@@H](CN(C)S(=O)(=O)c2ccc(Cl)cc2)Oc2ccc(NC(=O)Cn3cnnn3)cc2C1=O
 : 1.5, 0.4
C[C@@H]1CN([C@@H](C)CO)C(=O)c2cccc(NC(=O)c3nc4ccccc4s3)c2O[C@H]1CN(C)C(=O)Nc1cccc2ccccc12
 : -10.4, /
C[C@H]1CN([C@@H](C)CO)C(=O)c2cccc(NC(=O)Nc3ccccc3)c2O[C@H]1CN(C)Cc1ccc(Oc2ccccc2)cc1
 : 0.1, /
COC(=O)c1scc(S(=O)(=O)C(C)(C)C)c1N
 : -1.3, 1.4
CC(C)NC(=O)N(C)C[C@@H]1Oc2ccc(NC(=O)Cc3ccccc3)cc2C(=O)N([C@@H](C)CO)C[C@H]1C
 : 6.0, 0.0
COC(=O)c1c(N)sc2c1CCC(C(C)(C)C)C2 (stereo not given)
 : 1.3, -1.3
Cn1cnc(S(=O)(=O)NCC2CCN(S(=O)(=O)c3ccccc3)CC2)c1
 : 3.4, -1.0
O=c1ccc2cc(O)c(O)cc2o1
 : 3.5, -0.4
OCc1c[nH]c2ccccc12
 : -5.8, -0.3
COCc1nnc(NS(=O)(=O)c2ccc(OC)cc2)s1
 : -0.1, 0.9
Cc1ccc(S(=O)(=O)Nc2ccc3c(c2)C(=O)N([C@@H](C)CO)C[C@@H](C)[C@H](CN(C)C(=O)NC2CCCCC2)O3)cc1
 : 0.0, 0.0
CC1(C)CC[C@]2(C(=O)O[C@@H]3OC[C@H](O[C@@H]4OC[C@H](O)[C@H](O)[C@H]4O)[C@H](O)[C@H]3O)CC[C@]3(C)C(=CCC4[C@@]5(C)C[C@H](O)[C@H](O[C@@H]6O[C@H](C(=O)O)[C@@H](O)[C@H](O[C@@H]7OC[C@H](O)[C@H](O)[C@H]7O)[C@H]6O)[C@@](C)(CO)C5CC[C@]43C)[C@@H]2C1 (stereo not given in full)
 : /, -0.3
C[C@@H]1CN([C@H](C)CO)C(=O)c2cccc(NS(=O)(=O)c3ccc(F)cc3)c2O[C@@H]1CN(C)C(=O)Nc1ccc(F)cc1
 : 4.0, /
C[C@@H]1CN([C@H](C)CO)C(=O)c2cc(NC(=O)Cn3cnnn3)ccc2O[C@H]1CN(C)Cc1ccc(Oc2ccccc2)cc1
 : 2.8, 0.2
COc1ccc(S(=O)(=O)Nc2cccc3c2O[C@H](CN(C)Cc2ccc(Oc4ccccc4)cc2)[C@@H](C)CN([C@@H](C)CO)C3=O)cc1
 : 2.8, /
C[C@@H]1CN([C@@H](C)CO)C(=O)c2cccc(NC(=O)Nc3ccc(C(F)(F)F)cc3)c2O[C@H]1CN(C)Cc1ccccc1
 : 6.0, /
COc1ccc(NC(=O)N(C)C[C@@H]2Oc3c(NC(=O)C4CC4)cccc3C(=O)N([C@@H](C)CO)C[C@@H]2C)cc1
 : 0.0, /
O=C1CC(N2C(=O)C3CC=CCC3C2=O)C2COC1O2 (stereo not given)
 : 2.2, 1.5
C[C@@H]1CN([C@H](C)CO)C(=O)c2cccc(NC(=O)C3CC3)c2O[C@@H]1CN(C)Cc1ccncc1
 : -0.8, /
O=C(C1CC(c2ccc(F)cc2)=NO1)N1CCCCC1 (stereo not given)
 : 1.4, /
N#C/C=C/N(C#N)c1ccccc1
 : -1.2, 0.2
CC(C)NC(=O)Nc1cccc2c1O[C@@H](CN(C)Cc1ccc(C(=O)O)cc1)[C@@H](C)CN([C@@H](C)CO)C2=O
 : -6.4, /
CNC[C@H]1Oc2ccc(NS(=O)(=O)c3c(C)noc3C)cc2C(=O)N([C@@H](C)CO)C[C@H]1C
 : -0.5, -0.2
CC(C)CN(CC(C)C)C(=O)CCn1c(=O)oc2ccccc21
 : -0.4, /
COc1cc2c(C(=O)N3CCC4(CC3)OCCO4)cn(CC(C)C)c(=O)c2cc1OC
 : -5.7, /
COc1ccc(S(=O)(=O)N2CCCC2C(=O)n2nc(C)cc2C)cc1 (stereo not given)
 : 5.8, 0.5
O=C(CN1C(=O)/C(=C/c2ccccc2)Sc2ccccc21)NC1CCCC1
 : 20.0, -0.6
C[C@@H]1CN([C@@H](C)CO)C(=O)c2cccc(NC(=O)Nc3ccccc3)c2O[C@@H]1CN(C)S(=O)(=O)c1ccccc1
 : -2.5, /
Cc1ccc(S(=O)(=O)Nc2ccc3c(c2)C(=O)N([C@@H](C)CO)C[C@H](C)[C@@H](CN(C)Cc2ccc(C(=O)Nc4ccccc4N)cc2)O3)cc1
 : 5.5, /
O=S(=O)(NC1CCCCC1)c1ccc(Cl)s1
 : -3.5, /
C[C@H]1CN([C@@H](C)CO)C(=O)c2cc(NS(=O)(=O)c3cn(C)cn3)ccc2O[C@H]1CN(C)Cc1ccc(Cl)c(Cl)c1
 : -4.2, 0.7
Cc1noc(C)c1NC(=O)N(C)C[C@@H]1Oc2c(NS(=O)(=O)c3cccs3)cccc2C(=O)N([C@H](C)CO)C[C@@H]1C
 : -0.3, /
Nc1no[n+]([O-])c1-c1ccccc1
 : 7.3, -0.9
COc1ccc(NC(=S)NCCCC2C=NNC2=O)cc1 (stereo not given)
 : 0.1, -0.3
CCC1Oc2ccc(Cl)cc2N(CC(=O)NCCc2ccccc2)C1=O (stereo not given)
 : 0.0, 1.6
Cc1sc2ncnc(N3CCN(Cc4ccccc4)CC3)c2c1-c1ccc(F)cc1
 : -3.1, -1.1
C[C@@H]1O[C@@H](OC[C@H]2O[C@@H](OCCc3ccc(O)c(O)c3)[C@H](O)[C@@H](O)[C@@H]2OC(=O)/C=C/c2ccc(O)c(O)c2)[C@H](O)[C@H](O)[C@H]1O
 : -1.9, 0.5
COc1ccc(NC(=O)Nc2cccc3c2O[C@@H](CN(C)CC2CC2)[C@H](C)CN([C@H](C)CO)C3=O)cc1
 : 4.3, /
COc1cc2c(c3oc(-c4ccccc4)cc(=O)c13)C=CC(C)(C)O2
 : -2.5, -1.0
C[C@@H]1CN([C@@H](C)CO)C(=O)c2cc(NC(=O)Nc3ccccc3)ccc2O[C@H]1CN(C)Cc1ccccc1
 : 0.4, 0.4
C[C@H]1CN([C@@H](C)CO)C(=O)c2cc(NC(=O)CCC(F)(F)F)ccc2O[C@@H]1CN(C)C(=O)Nc1ccc2c(c1)OCO2
 : -0.3, -0.1
COC(=O)c1cc(S(=O)(=O)Nc2cccc(-c3cnco3)c2)oc1C
 : 5.1, -0.2
C[C@H](CO)N1C[C@H](C)[C@@H](CN(C)Cc2ccc(-c3ccccc3)cc2)Oc2ccc(NC(=O)Nc3ccc4c(c3)OCO4)cc2C1=O
 : 0.6, -0.1

# No new results follow: two of the compounds above.
# Sequence of screens: BJeLR viab HTS, A1 inh
COC(=O)c1cc(S(=O)(=O)Nc2cccc(-c3cnco3)c2)oc1C
 : 5.1, -0.2
C[C@H](CO)N1C[C@H](C)[C@@H](CN(C)Cc2ccc(-c3ccccc3)cc2)Oc2ccc(NC(=O)Nc3ccc4c(c3)OCO4)cc2C1=O
 : 0.6, -0.1
